Screens: PubChem, National Center for Advancing Translational Sciences (NCATS)
Menin MLL FP FL: qHTS Assay for Inhibitors Targeting the Menin-MLL Interaction in MLL Related Leukemias: Competition With Fluorescein Labeled MLL-derived Peptide. FP activity change, % at 61.4 µM. AID 1766, 2009. 290,000 tested, under 10 active. Fluorescence polarization, fluorescein-MLL peptide displacement from menin; inconclusive = falling polarisation curve, or a change in total fluorescence; inactive = total fluorescence flat and polarisation flat or rising; no compound was filed as active; the % refers to the polarisation; negative = inhibition;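 further: % of control where 0% means no effect; inhibitors lower the polarisation; unlabelled MLL peptide was the positive control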
Sfp inh: qHTS Assay for Inhibitors of Bacillus subtilis Sfp phosphopantetheinyl transferase (PPTase); Biochemical Sfp PPTase activity, qHTS; AID 1490, 2009; Potency, µM, for inactives: max response, negative = inhibition, usual class: inhibitors; hit rate 3.5% among 310,000; 4'-phosphopantetheinyl transferase ffp (Bacillus subtilis), Q9F4F7; active means well fitted inhibition curve with a large enough effect; inconclusive means small, poorly fitted or top-dose-only effect, or another doubt; inactive means no such curve, though single readings can be large or run the other way;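 further: the enzyme is Sfp with the accession as filed and its product quenches rhodamine fluorescence; potency means the concentration at half of the fitted maximal effect; 0% = enzyme reaction without inhibitor and -100% = no enzyme wells; top concentration of the series not given in the record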
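With Hepes-Na pH 7.6 buffer containing 10 mM MgCl2, Sfp (15 nM) modified BHQ-2-YbbR (12.5 uM) using rhodamine-CoA (5 uM). Two reads 30 minutes apart at 525/598 nm yielded each well's rate.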
Numbers without * were called inactive; & = joins results of further samples; [ ] = dose if it differs, or a comment.

What do the screens show for `NCCC[C@@H](CC(=O)N[C@@H]1CCCC[C@H]1C(=O)N[C@H](CC(=O)N[C@@H](CCC(=O)O)CC(=O)O)Cc1c[nH]c2ccccc12)NC(=O)C[C@H](Cc1c[nH]c2ccccc12)NC(=O)[C@@H]1CNCC[C@H]1N`?
Menin MLL FP FL: -0.1; Sfp inh: -0.7%

How did O=C(OCC1OC(OC(=O)c2cc(O)c(O)c(OC(=O)c3cc(O)c(O)c(O)c3)c2)[C@@H](OC(=O)c2cc(O)c(O)c(OC(=O)c3cc(O)c(O)c(O)c3)c2)C(OC(=O)c2cc(O)c(O)c(OC(=O)c3cc(O)c(O)c(O)c3)c2)C1OC(=O)c1cc(O)c(O)c(OC(=O)c2cc(O)c(O)c(O)c2)c1)c1cc(O)c(O)c(OC(=O)c2cc(O)c(O)c(O)c2)c1 (stereo partly drawn) do in these assays?
Menin MLL FP FL: inconclusive; Sfp inh: 11.2µM*

What do the screens show for `O=C(O)c1ccc2c(c1)C(=O)N([C@H](Cc1c3ccccc3cc3ccccc13)C(=O)O)C2=O`?
Menin MLL FP FL: -6.9; Sfp inh: 15.4%

What do the screens show for `CC1(C)CCC(NC(=O)[C@@H](N)CCC(=O)O)CC1`?
Menin MLL FP FL: -2.5; Sfp inh: 18.5%

What do the screens show for `CC(=O)NCCNc1nc(-c2cccc(NS(C)(=O)=O)c2)nc2ccccc12`?
Menin MLL FP FL: -0.1; Sfp inh: 9.7%

What do the screens show for `COc1ccccc1CNc1cc(-c2ccoc2)ncn1`?
Menin MLL FP FL: inconclusive; Sfp inh: 28.2µM*

What do the screens show for `CC(O)C(O)[C@H]1CNc2nc(N)[nH]c(=O)c2N1` (stereo partly drawn)?
Menin MLL FP FL: -12.0; Sfp inh: -28.1%

What do the screens show for `CO/N=C(/C(=O)N[C@@H]1C(=O)N2C(C(=O)O)=C(CSc3nnnn3C)CS[C@H]12)c1csc(N)n1`?
Menin MLL FP FL: 4.4; Sfp inh: -22.1%

How did CC(=O)OCCN1C(=O)c2c(C)nc3ccc(S(=O)(=O)N4CCOCC4)cc3c2C1=O do in these assays?
Menin MLL FP FL: -3.2; Sfp inh: -0.9%

How did NCCCC[C@H](NC(=O)[C@H](Cc1c[nH]c2ccccc12)NC(=O)[C@H](CC(=O)O)NC(=O)[C@H](Cc1cnc[nH]1)NC(=O)[C@H](CO)NC(=O)[C@H](Cc1c[nH]c2ccccc12)NC(=O)[C@H](Cc1cnc[nH]1)NC(=O)[C@@H]1CCC(=O)N1)C(=O)N1CCC[C@H]1C(=O)NCC(N)=O do in these assays?
Menin MLL FP FL: -1.0; Sfp inh: -26.0%

How did CCNc1ncc2nc(-c3cccc(C#N)c3)c(=O)n(Cc3cccc(OC)c3)c2n1 do in these assays?
Menin MLL FP FL: inconclusive; Sfp inh: 26.5%

Results for CCCC[C@@H]1C[C@H]1C(NC(=O)c1ccccc1)c1ccc(C(F)(F)F)cc1 (stereo partly drawn) ?
Menin MLL FP FL: -1.9; Sfp inh: 18.0%

How did Cc1onc(-c2c(F)cccc2Cl)c1C(=O)N[C@H]1C(=O)N2[C@H]1SC(C)(C)[C@H]2C(=O)O do in these assays?
Menin MLL FP FL: -0.1[24.8 µM]; Sfp inh: -15.7%

How did CCCCC[C@H](O)/C=C/[C@@H]1[C@@H](CC(=O)CCC(=O)O)[C@@H](O)C[C@H]1O do in these assays?
Menin MLL FP FL: -0.1; Sfp inh: -8.4%

Results for Cn1cccc1C(=O)N1CCC2(CC1)CN(C(=O)Nc1cccc(F)c1)C2 ?
Menin MLL FP FL: -1.1; Sfp inh: 12.9%

How did C[C@@]12CC[C@@H]3c4ccc(O)cc4C[C@H](CCCCCCCCCS(=O)CCCC(F)(F)C(F)(F)F)[C@H]3[C@@H]1CC[C@@H]2O (stereo partly drawn) do in these assays?
Menin MLL FP FL: 0.0; Sfp inh: -3.9%

Results for CS(=O)(=O)c1ccc(CNC(=O)[C@@H]2C[C@H]2[C@@H](NP(=O)(c2ccccc2)c2ccccc2)c2ccccc2)cc1 ?
Menin MLL FP FL: 0.1; Sfp inh: 11.3%

How did CCOC(=O)[C@H](N)/C=C(\C)CP(=O)(O)O do in these assays?
Menin MLL FP FL: -16.7; Sfp inh: 13.8%

Results for C[C@H](O/N=C1/[C@H]2O[C@@H]2[C@@H](O)[C@H]2[C@H]1CCn1c(=O)n(-c3ccccc3)c(=O)n12)c1cn([C@H](CO)Cc2ccccc2)nn1 ?
Menin MLL FP FL: 4.1&-2.7[11.7 µM]; Sfp inh: 8.2%&11.7%

How did COC(=O)[C@@H]1C[C@H]1[C@@H](NC(=O)c1cc(C)nn1C)c1ccccc1 do in these assays?
Menin MLL FP FL: 1.4; Sfp inh: 8.7%

How did COc1ccccc1-c1cncnc1N(C)Cc1ccco1 do in these assays?
Menin MLL FP FL: -4.4; Sfp inh: -16.3%

Results for N#Cc1ccc(CN2CCC3(CC2)CCN(C(=O)c2ccncc2)CC3)cc1 ?
Menin MLL FP FL: -2.7; Sfp inh: 40.1%[activator]

Results for NCCNCCNCCNCCN ?
Menin MLL FP FL: -0.9; Sfp inh: 28.2%

Results for COc1cccc(C2=Nn3c(nnc3-c3ccc(OC)c(OC)c3)SC2)c1 ?
Menin MLL FP FL: 2.8; Sfp inh: -0.3%

How did CCCCC[C@H](O)/C=C/C=C\C=C\C=C\[C@@H](O)[C@@H](O)CCCC(=O)O do in these assays?
Menin MLL FP FL: -1.6; Sfp inh: 21.8%&14.7%

How did COc1ccc2[nH]cc(CCNc3ncncc3-c3ccoc3)c2c1 do in these assays?
Menin MLL FP FL: 9.8; Sfp inh: 8.5%

What do the screens show for `CC(C)c1ccccc1S(=O)(=O)c1cc(N)c2ncccc2c1[N+](=O)[O-]`?
Menin MLL FP FL: -0.4; Sfp inh: 18.7%

Results for O=C1C2=CC[C@H]3C(=O)N(C4CCCCC4)C(=O)[C@@H]3[C@@H]2[C@H](O)[C@@H]2O[C@H]12 ?
Menin MLL FP FL: -11.7[11.7 µM]; Sfp inh: inconclusive

Results for CCCCCCCCCCCCCCCC(=O)OCC(NC(=O)C(Cl)Cl)C(O)c1ccc([N+](=O)[O-])cc1 (stereo not drawn) ?
Menin MLL FP FL: -0.1; Sfp inh: 29.0%

What do the screens show for `Cn1cccc1C(=O)N1CCC2(CCCN(c3ccccn3)C2)CC1`?
Menin MLL FP FL: -2.9; Sfp inh: -5.4%

What do the screens show for `COc1ccc2[nH]cc(CCNc3nc(-c4c(C)noc4C)nc4ccccc34)c2c1`?
Menin MLL FP FL: -0.6; Sfp inh: -9.6%

Results for CCN(CC)Cc1ccc(Nc2ccnc3cc(Cl)ccc23)cc1O ?
Menin MLL FP FL: -19.2; Sfp inh: -10.6%

How did COc1ncc2nc(-c3ccccc3)c(=O)n(C)c2n1 do in these assays?
Menin MLL FP FL: -3.4; Sfp inh: 17.3%

How did COC(=O)NC(c1ccccc1)[C@@]1(C(=O)OC)CCCC1=O (stereo partly drawn) do in these assays?
Menin MLL FP FL: 0.5[11.7 µM]; Sfp inh: 10.8%

How did COc1ccccc1CNc1nc(-c2cccnc2)nc2ccccc12 do in these assays?
Menin MLL FP FL: -1.5; Sfp inh: -14.8%

Results for CC12CCC(C[N+](C)(CCC[N+](C)(C)C)C1)C2(C)C (stereo not drawn) ?
Menin MLL FP FL: 3.4; Sfp inh: -23.0%

What do the screens show for `CC[C@H](C)N(C)C(=O)c1cc2ccccc2c(-c2ccccc2Cl)n1`?
Menin MLL FP FL: 55.9[activator]; Sfp inh: 18.5%

How did CO[C@@H]1COC(=O)[C@H](C)NC(=O)[C@@H](C)COC(=O)[C@H](C)NC(=O)C/C=C\[C@H]1C do in these assays?
Menin MLL FP FL: 0.0[11.7 µM]; Sfp inh: -7.6%

How did COC(=O)Oc1ccccc1C(=O)O do in these assays?
Menin MLL FP FL: -0.5; Sfp inh: 10.4%

What do the screens show for `CS(=O)(=O)N1CCC2(CCN(C(=O)Nc3cccc(C#N)c3)CC2)CC1`?
Menin MLL FP FL: -3.6; Sfp inh: 1.4%

What do the screens show for `CCOC(=O)CNC(=O)O[C@@H]1C(=O)c2cc(Br)ccc2O[C@H]1c1ccc2c(c1)OCO2`?
Menin MLL FP FL: 13.9; Sfp inh: -11.6%

What do the screens show for `COc1ccc2[nH]cc(CCNc3ncncc3-c3ccccc3C)c2c1`?
Menin MLL FP FL: -0.2; Sfp inh: -19.8%

Results for CCOC(=O)O[C@]1(C(=O)COC(=O)CC)CC[C@@H]2[C@@H]3CCC4=CC(=O)C=C[C@@]4(C)[C@H]3[C@H](O)C[C@]21C ?
Menin MLL FP FL: -3.9[24.8 µM]; Sfp inh: 7.1%

How did COC(=O)[C@@]1(C)C=C[C@@H](Cc2ccccc2)N1C(C)=O do in these assays?
Menin MLL FP FL: -0.4; Sfp inh: 13.1%

Results for COc1ccc(C2CC(=O)c3c(O)cc(O[C@H]4OC(COC5OC(C)C(O)C(O)[C@@H]5O)C(O)C(O)C4O)cc3O2)cc1O (stereo partly drawn) ?
Menin MLL FP FL: 0.0; Sfp inh: 12.1%

How did COc1ccc(-c2nc3cnc(N4CCOCC4)nc3n(C3CC3)c2=O)cc1 do in these assays?
Menin MLL FP FL: inconclusive; Sfp inh: 23.4%

What do the screens show for `COc1ccccc1-c1cncnc1NCc1cnc(C)cn1`?
Menin MLL FP FL: -28.9; Sfp inh: 79.4µM*

Results for O=C(c1cnccn1)N1CCC[C@@]2(CCN(c3ccccc3)C2)C1 ?
Menin MLL FP FL: -7.4; Sfp inh: 4.9%

What do the screens show for `CO[C@@H]1c2cc(F)ccc2/C(=C\CCOC(=O)C/C=C/c2ccccc2)[C@H]1C`?
Menin MLL FP FL: 2.1; Sfp inh: -21.9%

How did CC(C)C[C@H](NC(=O)[C@H](CC(C)C)NC(=O)[C@H](Cc1ccccc1)NC(=O)[C@@H](N)CO)C(=O)N[C@@H](CCCNC(=N)N)C(=O)N[C@@H](CC(N)=O)C(=O)N1CCC[C@H]1C(=O)N[C@@H](CC(N)=O)C(=O)N[C@@H](CC(=O)O)C(=O)N[C@@H](CCCCN)C(=O)N[C@@H](Cc1ccc(O)cc1)C(=O)N[C@@H](CCC(=O)O)C(=O)N1CCC[C@H]1C(=O)N[C@@H](Cc1ccccc1)C(=O)O do in these assays?
Menin MLL FP FL: 2.9; Sfp inh: 3.4%

Results for COC(=O)C1=C(C(=O)OC)[C@@H]2N(C)c3ccccc3[C@@]23C[C@@H](C(=O)OC)N(S(=O)(=O)c2ccc(C#N)cc2)C3=N1 ?
Menin MLL FP FL: 1.0[11.7 µM]; Sfp inh: 1.9%

Results for C=C1CC[C@@H]2O[C@@]2(C)CC[C@H]2[C@H]1CC2(C)C ?
Menin MLL FP FL: 10.3; Sfp inh: 10.8%

How did C[C@@H](O)C#C[Si](C)(C)c1ccccc1 do in these assays?
Menin MLL FP FL: -2.9; Sfp inh: 8.0%

Ordered by length of the SMILES (highest first): part of the list above.
How did CC(C)C[C@H](NC(=O)[C@H](CC(C)C)NC(=O)[C@H](Cc1ccccc1)NC(=O)[C@@H](N)CO)C(=O)N[C@@H](CCCNC(=N)N)C(=O)N[C@@H](CC(N)=O)C(=O)N1CCC[C@H]1C(=O)N[C@@H](CC(N)=O)C(=O)N[C@@H](CC(=O)O)C(=O)N[C@@H](CCCCN)C(=O)N[C@@H](Cc1ccc(O)cc1)C(=O)N[C@@H](CCC(=O)O)C(=O)N1CCC[C@H]1C(=O)N[C@@H](Cc1ccccc1)C(=O)O do in these assays?
Menin MLL FP FL: 2.9; Sfp inh: 3.4%

What do the screens show for `NCCC[C@@H](CC(=O)N[C@@H]1CCCC[C@H]1C(=O)N[C@H](CC(=O)N[C@@H](CCC(=O)O)CC(=O)O)Cc1c[nH]c2ccccc12)NC(=O)C[C@H](Cc1c[nH]c2ccccc12)NC(=O)[C@@H]1CNCC[C@H]1N`?
Menin MLL FP FL: -0.1; Sfp inh: -0.7%

How did C[C@@]12CC[C@@H]3c4ccc(O)cc4C[C@H](CCCCCCCCCS(=O)CCCC(F)(F)C(F)(F)F)[C@H]3[C@@H]1CC[C@@H]2O (stereo partly drawn) do in these assays?
Menin MLL FP FL: 0.0; Sfp inh: -3.9%

What do the screens show for `CO/N=C(/C(=O)N[C@@H]1C(=O)N2C(C(=O)O)=C(CSc3nnnn3C)CS[C@H]12)c1csc(N)n1`?
Menin MLL FP FL: 4.4; Sfp inh: -22.1%

How did Cc1onc(-c2c(F)cccc2Cl)c1C(=O)N[C@H]1C(=O)N2[C@H]1SC(C)(C)[C@H]2C(=O)O do in these assays?
Menin MLL FP FL: -0.1[24.8 µM]; Sfp inh: -15.7%

Results for COc1cccc(C2=Nn3c(nnc3-c3ccc(OC)c(OC)c3)SC2)c1 ?
Menin MLL FP FL: 2.8; Sfp inh: -0.3%

What do the screens show for `COc1ccc2[nH]cc(CCNc3ncncc3-c3ccccc3C)c2c1`?
Menin MLL FP FL: -0.2; Sfp inh: -19.8%

What do the screens show for `Cn1cccc1C(=O)N1CCC2(CCCN(c3ccccn3)C2)CC1`?
Menin MLL FP FL: -2.9; Sfp inh: -5.4%

How did COc1ccccc1CNc1nc(-c2cccnc2)nc2ccccc12 do in these assays?
Menin MLL FP FL: -1.5; Sfp inh: -14.8%

Some of the compounds tested, so the mix of outcomes need not match the whole.
